Compound activity (PubChem BioAssay)
VACV mCherry inh = inhibitors of vaccinia virus infection (mCherry reporter signal). Vaccinia virus mCherry reporter infection, fluorescence; about a quarter of the inactives have no number. Potency, µM (top dose mostly 36.5 µM), for inactives: at the highest dose activity change, negative = inhibition, usual class: inhibitors. hit rate 0.63% among 310,000. AID 720579; active = well fitted inhibition curve with a large enough effect; inconclusive = small, poorly fitted or top-dose-only effect; inactive = no such curve, though single readings can be large or run the other way; tested in A549 cells; also: nearly all actives have a fitted effect of over 35% in size; inactives centre near -10
Vaccinia Venus = inhibitors of vaccinia virus (Venus reporter). Vaccinia virus Venus reporter expression, fluorescence. Potency, µM (doses to about 36.5 µM), for inactives: top-dose activity change, negative = inhibition, most hits filed as inhibitors. hit rate 0.46% among 330,000; active means well fitted inhibition curve with a large enough effect; inconclusive means small, poorly fitted or top-dose-only effect; inactive means no such curve, though single readings can be large or run the other way; tested in A549 cells; also: nearly all actives have a fitted effect of over 30% in size; inactives centre near -10
* hit, by the source's call; i = inactive; ? = inconclusive; . = not tested or not shown; & = joins results of further samples; [ ] = another dose, or the depositor's remark. % is scaled to controls: 0 for no effect and ±100 for the full control effect; potency is read from the fitted curve at half-maximal effect.

SMILES | VACV mCherry inh | Vaccinia Venus
COC(=O)c1cn(NC(=O)Cc2ccc(Cl)c(Cl)c2)c(=O)c2ccccc12 | -8% | -16%
O=C(NNC1=NC2(CCCC2)Cc2ccccc21)c1ccncc1 | -9% | 7%
CCN(Cc1ccccc1)C(=O)C1CCC(CNc2c(N3CCOCC3)c(=O)c2=O)CC1 (stereo not given) | 0% | -2%
Cc1cc(Cl)ccc1OCC(=O)NNC(=O)c1ccc(=O)[nH]c1 | -11% | -7%
C/C(=N\NC(=O)CCc1ccc(S(=O)(=O)N2CCOCC2)cc1)c1ccc(Br)cc1 | 5% | 10%
O=C(COc1ccccc1F)Nc1ccc2c(c1)CCC2 | -13% | -7%
O=C(Cc1cccs1)Nc1nnc(SCc2cccc3ccccc23)s1 | -10% | -11%
Cc1cccc(NC(=O)c2cc([N+](=O)[O-])ccc2N2CCN(C)CC2)c1 | 4% | 3%
Cc1cccc(C2C=C(c3ccc(F)cc3)Nc3nc4ccccc4n32)c1 (stereo not given) | -21% | 38%[activator]
CCOC(=O)C(=O)/C(=C\N(C)C)c1onc(-c2ccccc2)c1C(=O)OC | . | -21%
COc1ccc(S(=O)(=O)/N=C2/NC(=O)/C(=C\c3ccco3)S2)cc1 | 0% | -9%
O=C(OCc1nnc(-c2ccccc2)o1)c1cccnc1Cl | i | 0%
O=C(CSc1nc(=O)n(CCCN2CCOCC2)c2c1CCCC2)Nc1cccc(Cl)c1 | -5% | -17%
CC1(C)C(=O)OC(C(=O)c2ccc(Cl)cc2)C(C)(C)C1=O (stereo not given) | i | -9%
O=C(Nc1ccccc1)c1cc(C2CCCN(C(=O)c3ccc4c(c3)CCO4)C2)on1 (stereo not given) | 51%[activator] | -5%
CSc1nc2c(c(=O)n1C)SC(C)C2 (stereo not given) | -24% | 6%
COc1ccccc1C(=O)NCCC(=O)Nc1nc2ccccc2[nH]1 | -14% | ?
Cc1cc(C)n(-c2n[nH]c(C)c2[N+](=O)[O-])n1 | i | -14%
COc1cc(OC)c2c(=O)c(-c3ccccc3)coc2c1 | -5% | -11%
Cc1cc(C)n(CCNS(=O)(=O)c2ccc(Cl)cc2)n1 | -16% | -16%
C=CCON/C(CCC)=C1\C(=O)CC(C)(C)CC1=NC | i | -4%
NNC(=O)c1csc(-c2cccc(C(F)(F)F)c2)n1 | -1% | -14%
C=CCN(CC(O)c1cccc([N+](=O)[O-])c1)C(C)CCc1ccccc1 (stereo not given) | ? | -15%
O=C(/C=C/c1cccs1)NC1CC1 | -13% | -11%
CC(C(=O)Nc1nccs1)N1C(=O)C2CC=CCC2C1=O (stereo not given) | -13% | -4%
COc1ccc(CC(=O)NNc2ncnc3c2cnn3Cc2ccccc2)cc1OC | -28% | -9%
O=C(COc1ccc(F)cc1)NCc1ccc2c(c1)CCN2C(=O)c1ccc(F)cc1 | -17% | -27%
COc1ccc(CNC(=O)C(C)N2Cc3ccccc3C2=O)cc1 (stereo not given) | -5% | -7%
Cc1cccc(CC(C)NC(=O)CCc2nnc(CCCCc3ccccc3)o2)n1 (stereo not given) | -1% | -19%
Cc1ccc(OCCNC(=O)CNC(=O)c2ccccc2Cl)cc1 | -18% | -11%
CN(C)CCCN(C(=O)CCc1ccccc1)c1nc2ccc(F)cc2s1 | -12% | -12%
CC(C)c1ccc(NC(=O)Cn2nnc(C(=O)NCc3ccc4c(c3)OCO4)c2N)cc1 | -15%&0% | 0%&-12%
O=C(c1ccc([N+](=O)[O-])cc1)N1CCSC1c1ccc(Cl)cc1 (stereo not given) | -7% | -5%
CCCOc1ccc(/C=N/n2nnnc2N)cc1OC | -3% | -6%
CCc1nn(-c2ccccc2)c(=S)c2ccccc12 | ? | -12%
Oc1ccc(C[C@@H](CN2CCCC2CN2C(=S)NC[C@@H]2Cc2ccccc2)N2C[C@H](Cc3ccccc3)N(CC3CCCCCC3)C2=S)cc1 (stereo not given in full) | -19% | -14%
COCCSc1nnc(NC(=O)CS(=O)(=O)c2ccc(C)cc2)s1 | 0% | -3%
C[N+](C)(C)CC1CCCc2ccccc2C1=O (stereo not given) | -9% | 0%
CCC(Sc1nc2cc(OC)c(OC)cc2c(=O)n1Cc1ccc(OC)cc1)C(=O)NCCOC (stereo not given) | ? | ?
Cc1cccc(Cn2c(CNC(=O)c3ccccc3)nc3ccccc32)c1 | -19% | -18%
NS(=O)(=O)c1ccc(N/N=C2/CCCc3ccccc32)c([N+](=O)[O-])c1 | -4% | 8%
CCN(c1c(C)n(C)n(-c2ccccc2)c1=O)S(C)(=O)=O | -7% | -5%
CC(NC(=O)COC(=O)COc1ccc(Cl)cc1)c1ccccc1 (stereo not given) | -14% | -1%
COc1ccc(O)c(-c2cc(-c3cccc(Br)c3)n[nH]2)c1 | -6%[1.46 µM] | ?
COc1ccc(-c2nnc(SC(C)C(=O)Nc3c(C)n(C)n(-c4ccccc4)c3=O)o2)cc1 (stereo not given) | . | 7%
Cc1ccc(S(=O)(=O)Cc2nc(-c3ccc(C(=O)NCCCOC(C)C)cc3)oc2C)cc1 | -9% | 0%
O=C(CN1C(=O)CC(c2ccco2)Sc2ccccc21)NC1CCCCC1 (stereo not given) | i | -13%
CCC(=O)c1ccccc1OCCN1C(=O)NC(C)(C)C1=O | -14% | -6%
CS(=O)(=O)N(CC(=O)N/N=C/c1ccc(OCC(=O)N2CCOCC2)cc1)c1ccccc1Cl | -15% | -12%
CCOC(=O)/C(C#N)=N/Nc1ccc(S(=O)(=O)N2CCc3ccccc32)cc1 | -20% | ?
CCOc1cccc(C(=O)Nc2ccccc2OC(F)F)c1 | . | -20%
COc1ccccc1N=Nc1ccc(N)c(C)c1 | ? | -26%
CCOc1cc(/C=N/O)ccc1OCC(=O)Nc1cccc(C)c1 | 0% | 11%
CC(NC(=O)CC12CC3CC(CC(C3)C1)C2)C(=O)O (stereo not given) | 0% | -10%
C=CCOCC(O)CS(=O)(=O)Cc1ccc(Cl)cc1 (stereo not given) | . | -15%
Fc1ccccc1NC(=S)Nn1cnnc1 | i | -7%
CCOC(=O)C1CCN(C(=O)c2cc(S(=O)(=O)N(C)C)ccc2N2CCCC2)CC1 | i | -12%
CCN(CC)S(=O)(=O)c1ccc(/C=C/C(=O)OCC(=O)c2c(N)n(C)c(=O)n(C)c2=O)cc1 | ? | ?
O=C(Nc1ccc2c(c1)OCO2)c1cccc2c1C(=O)N(C1CCCCC1)C2 | 5% | -2%
COc1cc(-c2noc(C)c2C(=O)NCCc2ccccc2)cc(OC)c1OC | 6% | -17%

Structures above containing an aryl thioether with sulfur outside any ring (6):
SMILES | VACV mCherry inh | Vaccinia Venus
O=C(Cc1cccs1)Nc1nnc(SCc2cccc3ccccc23)s1 | -10% | -11%
O=C(CSc1nc(=O)n(CCCN2CCOCC2)c2c1CCCC2)Nc1cccc(Cl)c1 | -5% | -17%
CSc1nc2c(c(=O)n1C)SC(C)C2 (stereo not given) | -24% | 6%
COCCSc1nnc(NC(=O)CS(=O)(=O)c2ccc(C)cc2)s1 | 0% | -3%
CCC(Sc1nc2cc(OC)c(OC)cc2c(=O)n1Cc1ccc(OC)cc1)C(=O)NCCOC (stereo not given) | ? | ?
COc1ccc(-c2nnc(SC(C)C(=O)Nc3c(C)n(C)n(-c4ccccc4)c3=O)o2)cc1 (stereo not given) | . | 7%

New compounds follow:
SMILES | VACV mCherry inh | Vaccinia Venus
Clc1ccc(C(Cl)(Cl)Cl)c(Cl)c1 | i | -11%
CN(C)S(=O)(=O)c1cccc(NC(=O)COc2ccc(S(=O)(=O)N3CCOCC3)cc2Cl)c1 | i | -11%
Cc1ccc(CSCc2ccc(C(=O)NC3CCCC3)o2)cc1 | -11% | -8%
COc1ccccc1/C=N/OCc1ccc(C#N)cc1 | -4% | -15%
COc1cccc(-n2ccnc2SCC(=O)Nc2cccc3ccccc23)c1 | i | -18%
Cc1ccc(N=Cc2ccc(N(C)C)cc2)cc1C | -10% | -6%
COCCNC(=O)C1(C)CCN(C(=O)c2oc3ccccc3c2C)C1 (stereo not given) | 28% | -8%
COc1cc2ncnc(NCc3cc(F)ccc3F)c2cc1OC | -5% | -8%
C=CCNC(=O)c1cc2sccc2n1C | i | 0%
CC(=O)Nc1ccc(NS(=O)(=O)c2cccc3nonc23)cc1 | -10% | 1%
Cc1ccc(S(=O)(=O)N2CCOCC2)cc1NC(=O)COc1ccc(-c2nnco2)cc1 | -18% | -9%
Clc1ccc(OCc2noc(-c3ccsc3)n2)c(Cl)c1 | i | 6%
CC(C)c1ccc(OCC(=O)N(Cc2cccs2)C2CCS(=O)(=O)C2)cc1 (stereo not given) | -3% | -7%
O=C(NC1CC1)C1=C[C@H](c2ccccc2)C[C@H](OCc2ccc(CO)cc2)O1 | ? | -13%
CCOC(=O)C1=C[C@@H](C2CCCCC2)N(S(=O)(=O)c2ccc([N+](=O)[O-])cc2)[C@H]1c1ccccc1 | 13% | -1%
CC(=O)N1CCC(C(=O)N2CCN(S(=O)(=O)c3ccc(F)cc3)CC2)CC1 | -4% | -3%
O=C(OCc1ccccc1F)c1cnc(Cl)c(Cl)c1 | i | -6%
O=C1Nc2ccccc2C(=O)N2[C@H](c3cccc(Br)c3)[C@@H]3C(=O)N(Cc4ccccc4)C(=O)[C@@H]3[C@H]12 | -16% | 0%
C=CCN1C(=O)C(CC(=O)O)SC1=Nc1ccc(C(=O)O)cc1 (stereo not given) | -1% | -6%
CSc1c(-c2ccccn2)c(N)nn1C(=O)C1CC1 | -10% | -21%
CCOC(=O)N1CCN(C(=O)CN(c2cc(C(F)(F)F)ccc2Cl)S(C)(=O)=O)CC1 | -12% | -6%
O=C(/C=C/Nc1ccc(Cc2ccc(N/C=C/C(=O)C(F)(F)F)cc2)cc1)C(F)(F)F | -28% | -18%
CCc1ccc(NC(=O)Nn2cnnc2)cc1 | i | -2%
O=C(NCCC1=CCCCC1)C1COc2ccccc2O1 (stereo not given) | . | -26%

Reformatted as labelled records: entries from further up
compound: Cc1cccc(NC(=O)c2cc([N+](=O)[O-])ccc2N2CCN(C)CC2)c1
  VACV mCherry inh: 4%
  Vaccinia Venus: 3%

compound: CCOc1cccc(C(=O)Nc2ccccc2OC(F)F)c1
  VACV mCherry inh: .
  Vaccinia Venus: -20%

compound: O=C(NNC1=NC2(CCCC2)Cc2ccccc21)c1ccncc1
  VACV mCherry inh: -9%
  Vaccinia Venus: 7%

compound: O=C(c1ccc([N+](=O)[O-])cc1)N1CCSC1c1ccc(Cl)cc1 (stereo not given)
  VACV mCherry inh: -7%
  Vaccinia Venus: -5%

(listing goes on)
SMILES | VACV mCherry inh | Vaccinia Venus
CC1CN(C(=O)CCC(=O)NCCCN2C(C)CCCC2C)c2ccccc2O1 (stereo not given) | i | -4%
COc1cccc(CNC(=O)CC(c2ccc(C)cc2)N2Cc3ccccc3C2=O)c1 (stereo not given) | -2% | 4%
CC1(C(=O)NS(=O)(=O)c2ccccc2)CCN1C(=O)CC1CCCC1 (stereo not given) | -8% | 6%
Cc1ccc(C)c2[nH]c(=O)c(CN(Cc3ccco3)C(=O)Nc3ccccc3)cc12 | -9%[1.46 µM] | -5%
COCCn1cnc2c1c(=O)n(Cc1ccccc1C#N)c(=O)n2Cc1ccccc1 | -4% | -2%
Cc1ccc(-c2nnnn2C2C/C(=N\NC(N)=S)C3OCC2O3)cc1 (stereo not given) | -9% | -23%
COCCCN(Cc1ccco1)C(=O)c1cc2c(s1)-c1ccccc1OC2 | -14% | -22%
Cc1ccc(NC(=O)c2ccc(=O)n(CC(=O)Nc3cccc(C)c3)n2)cc1 | -10% | -9%
Cc1cccc(NC(=O)c2cccc(C(=O)Nc3cccc(C)n3)c2)n1 | i | -8%
CCc1noc(C)c1C(=O)N1CCOc2ccc(CN3CCN(c4ccccn4)CC3)cc2C1 | -11% | -8%
CCNC(=O)C1(C)CCN(C(=O)c2ccc(C#N)cc2)C1 (stereo not given) | 7% | 5%
O=C1CCC(C(=O)N2CCCC(C(=O)c3ccc4ccccc4c3)C2)=NN1 (stereo not given) | -14% | ?

Complete entries from above.
Shown for COc1cccc(CNC(=O)CC(c2ccc(C)cc2)N2Cc3ccccc3C2=O)c1 (stereo not given) : VACV mCherry inh: -2%; Vaccinia Venus: 4%
Shown for COCCCN(Cc1ccco1)C(=O)c1cc2c(s1)-c1ccccc1OC2 : VACV mCherry inh: -14%; Vaccinia Venus: -22%

New compounds follow:
SMILES | VACV mCherry inh | Vaccinia Venus
Cc1ccc2oc(=O)c3cnn(CC(=O)N4CCN(c5ccc(F)cc5)CC4)c3c2c1 | 7% | -5%
O=c1[nH]c2ccccc2c(O)c1-c1ccccc1 | 7% | 7%
CC(NS(=O)(=O)c1ccc(Cl)c(Cl)c1)C(=O)OCC(=O)N1CCCCCC1 (stereo not given) | i | -11%
CC(C)NS(=O)(=O)c1ccc(Oc2ncc(C(F)(F)F)cc2Cl)cc1 | -5% | -1%
COc1ccc(S(=O)(=O)N(C)CC(=O)NCCC2=CCCCC2)cc1 | -20% | -15%
c1ccc(-c2csc3ncnc(NCCN4CCOCC4)c23)cc1 | -13% | ?
CC(=O)Nc1ccc(NC(=O)C2CCN(C(=O)c3ccc([N+](=O)[O-])cc3)CC2)cc1 | -5% | -7%
CCCNC(=O)COC(=O)c1ccc(OCC(=O)Nc2ccccc2OC)c(OC)c1 | 1% | -6%
Nc1nc2c(Cl)cc(Cl)cc2s1 | i | -19%
Cc1c(C(=O)NCc2ccccc2Cl)sc2ncnc(N(C)C3CCCCC3)c12 | 1% | -6%
